SARS PLP yeast = qHTS of Yeast-based Assay for SARS-CoV PLP | Potency, µM (highest dose often 32.9 µM), inactives show at the highest dose activity, positive = growth rescue | 330,000 tested, 0.19% active | S. cerevisiae expressing SARS-CoV PLpro, growth rescue; control for the full effect not named in the record; note: 0% is about no effect; nearly all actives have a fitted effect of over 55% in size; growth read by luminescence after 48 h
MARV entry inh = qHTS for inhibitors of binding or entry into cells for Marburg Virus | Marburg virus pseudotyped entry inhibition, cell reporter; control for the full effect not named in the record; about a third of the inactives were read at about 46 µM | Potency, µM (doses to about 37.8 µM), for the others: at the top dose activity change, negative = inhibition, actives largely listed as inhibitors | 300,000 tested, 1.8% active; active = well fitted inhibition curve with a large enough effect; inconclusive = small, poorly fitted or top-dose-only effect, or effect the other way; inactive = flat fitted curve, though single readings scatter; tested in HEK293 cells; about a fifth of its hits are not listed in these tables; note: % is set by controls: 0 for no effect and ±100 for the full control effect; luciferase read-out
LASV entry inh = qHTS for Inhibitors of binding or entry into cells for Lassa Virus; Lassa virus pseudotype entry inhibition, cell reporter; control for the full effect not named in the record; Potency, µM (doses to about 37.9 µM), for the others: at the top dose activity change, negative = inhibition, actives largely listed as inhibitors; 300,000 tested, 1.2% active; AID 540256, 2011; active means well fitted inhibition curve with a large enough effect; inconclusive means small, poorly fitted or top-dose-only effect, or effect the other way; inactive means flat fitted curve, though single readings scatter; tested in HEK293 cells; note: % is set by controls: 0 for no effect and ±100 for the full control effect; nearly all actives have a fitted effect of over 50% in size; luciferase read-out
StopGo reporter = High Throughput Screening for Foot and Mouth Disease Virus Antivirals. AID 1159524, 2015. 410,000 tested, 1.2% active. Potency, µM (series often up to 57.9 µM), for inactives: at the highest dose signal change, negative = less light. human cells with a luciferase reporter of 2A StopGo recoding; control for the full effect not named in the record; active = well fitted falling curve with a large enough effect; inconclusive = small, poorly fitted or top-dose-only effect; inactive = no such curve, though single readings can be large or run the other way; tested in HEK293T cells; note: % is set by controls: 0 for no effect and ±100 for the full control effect; nearly all actives have a fitted effect of over 45% in size; luciferase light after 4 h
RE007 growth inh = qHTS Assay for Inhibitors of the HIV-1 protein Vpr; 360,000 tested, 0.21% active; Potency, µM (top dose mostly 92.2 µM), without a hit: top-dose activity change, negative = less growth; S. pombe RE007 Vpr strain, BacTiter-Glo ATP luminescence, 24 h; control for the full effect not named in the record; active = well fitted falling curve with a large enough effect; inconclusive = small, poorly fitted or top-dose-only effect; inactive = no such curve, though single readings can be large or run the other way;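 note: % is set by controls: 0 for no effect and ±100 for the full control effect; nearly all actives have a fitted effect of over 50% in size; the assay follows cell death caused by Vpr and the record does not say whether a fall means rescue or toxicity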
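Fission yeast RE007 carrying one integrated HIV-1 vpr copy, seeded at OD 0.01 in PMG+AL medium with 23 nL pinned compound. Grown 24 h at 30 degrees; viability read by BacTiter-Glo luminescence after 5 min.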
Cruzain inh Det = qHTS Assay for Promiscuous and Specific Inhibitors of Cruzain (with detergent). purified cruzain, Z-FR-AMC fluorescence, 0.01% Triton. 200,000 tested, 0.43% active. Potency, µM, inactives show max response, negative = inhibition, hits mostly inhibitors. Cruzipain (Trypanosoma cruzi), P25779; active = well fitted curve in the direction sought with a large enough effect; inconclusive = small, poorly fitted or top-dose-only effect, or another doubt; inactive = no such curve, though single readings can be large; an effect the other way counts as inactive or inconclusive;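 note: plate controls were neutral wells for no effect and buffer without enzyme for full effect; nearly all actives have a fitted effect of over 40% in size; top concentration of the series not given in the record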
Target sequence (P25779 123-467 limits assumed): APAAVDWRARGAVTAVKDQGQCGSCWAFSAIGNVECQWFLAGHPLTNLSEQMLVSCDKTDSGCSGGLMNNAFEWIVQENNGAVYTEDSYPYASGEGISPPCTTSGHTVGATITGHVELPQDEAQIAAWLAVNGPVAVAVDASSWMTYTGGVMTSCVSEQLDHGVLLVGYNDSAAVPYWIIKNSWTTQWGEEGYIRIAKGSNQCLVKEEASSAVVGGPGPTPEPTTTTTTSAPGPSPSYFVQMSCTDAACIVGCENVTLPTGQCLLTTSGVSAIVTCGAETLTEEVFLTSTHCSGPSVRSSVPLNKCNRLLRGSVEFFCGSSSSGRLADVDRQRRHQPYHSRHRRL
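Purified cruzain (1.5 nM final) was preincubated with compounds for 15 min at room temperature in 100 mM sodium acetate pH 5.5, 5 mM DTT, 0.01% Triton X-100. Reaction started with 2 uM Z-FR-AMC; AMC fluorescence change over 60 s gave activity.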
NS1 function inh = qHTS Assay for Inhibitors of Influenza NS1 Protein Function; S. cerevisiae slowed by influenza A NS1, growth recovery by OD600; Potency, µM (titrated, usually from 46.1 µM), without a hit: at the top dose activity, positive = more growth; 270,000 tested, 0.4% active; AID 2326, 2010; note: actives are rising curves; nearly all actives have a fitted effect of over 50% in size
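Growth recovery, yeast-based: influenza A NS1 expressed in S. cerevisiae causes slow growth, and suppressors are detected by OD600. The parent strain without NS1 is used as positive control.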
Cruzain inh noDet = qHTS Assay for Promiscuous and Specific Inhibitors of Cruzain (without detergent); Cruzipain (Trypanosoma cruzi), P25779; purified cruzain, Z-FR-AMC fluorescence, no detergent; Potency, µM, for the others: max response, negative = inhibition, most hits filed as inhibitors; 200,000 tested, 2.3% active; active = well fitted curve in the direction sought with a large enough effect; inconclusive = small, poorly fitted or top-dose-only effect, or another doubt; inactive = no such curve, though single readings can be large; an effect the other way counts as inactive or inconclusive;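 note: plate controls were enzyme without inhibitor for no effect and buffer without enzyme for full effect; nearly all actives have a fitted effect of over 40% in size; top concentration of the series not given in the record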
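Purified cruzain at 1.5 nM, pre-incubated 15 min with compound at room temperature in 100 mM sodium acetate pH 5.5, 5 mM DTT, 0.00005% Triton X-100. Reaction started with 2 uM Z-FR-AMC; AMC fluorescence increase over 60 s gives rate.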
Active calls of the source: *; ? = inconclusive; · = no result given; [ ] = remark or other dose. Unless noted, calls come from the whole dose curve; as a rule, active means well fitted rising curve with a large enough effect; inconclusive means small, poorly fitted or top-dose-only effect; inactive means no such curve, though single readings can be large or run the other way. Potency is the fitted concentration of half-maximal effect. Outcome played no part in choosing rows; overall some 4.7% were active at least once.

SMILES	SARS PLP yeast	MARV entry inh	LASV entry inh	StopGo reporter	RE007 growth inh	Cruzain inh Det	NS1 function inh	Cruzain inh noDet
O=C(NCc1ccccc1Cl)C1CCN(C(=O)c2ccco2)CC1	0.6%	12.9%[46.1 µM]	-3.8%[46.1 µM]	18.5%	1.8%	·	-6.7%	·
O=C(NCN1C(=O)C2C3C=CC(C3)C2C1=O)Nc1nccs1 (centres undefined)	6.4%	14.7%	15.9%	0.0%	26.7%	0.1%	6.4%	-9.2%
CCOC(=O)C1=C(C)NC(SCC(=O)Nc2nc(C)cs2)=C(C#N)C1c1cccs1 (centres undefined)	-23.8%	0.2%	·	·	·	-8.1%	6.4%	-11.6%
COc1ccc(C(=O)C2CCCN(C(=O)c3cccc(N(C)C)c3)C2)cc1OC (centres undefined)	4.0%	·	·	-15.8%	6.2%	·	-9.1%	·
COc1ccc(CCNC(=O)CN(c2cc([N+](=O)[O-])ccc2OC)S(C)(=O)=O)cc1	0.7%	-3.7%[46.1 µM]	-9.1%	1.5%	-12.4%	·	-0.1%	·
O=C(c1csc2ccccc12)N1CCN(c2ccccn2)CC1	-5.9%	2.9%	-3.7%	-9.8%	-29.4%	0.8%	8.6%	0.2%
CCCCNC(=O)c1cc2nc3c(c(C(F)(F)F)n2n1)CCc1ccccc1-3	-3.2%	20.5%	14.1%	9.6%	5.4%	-8.1%	5.0%	-3.3%
COc1cc2nc(N(CCCN(C)C)C(=O)c3ccc(S(=O)(=O)N4CCc5ccccc5C4)cc3)sc2cc1OC	-0.9%	?	-21.5%[46.1 µM]	-13.4%	-6.6%	·	·	·
COc1cccc(-c2nc(N3CCCCC3C)c3ccccc3n2)c1O (centres undefined)	-11.0%	?	18.4%	-26.6%	8.0%	-2.1%	8.4%	-1.3%
CC(C)(C)NC(=O)NCc1ccco1	0.3%	1.5%[46.1 µM]	3.1%[46.1 µM]	-7.3%	-12.1%	·	0.8%	·
CC(C)CC(NC(=O)C1CCC(C)CC1)C(=O)NCc1cccnc1 (centres undefined)	2.2%	-0.8%	15.2%	2.0%	16.8%	0.5%	8.8%	1.1%
CC(C)(C)Nc1nc(OCC#N)nc(N2CCCCC2)n1	-1.3%	·	·	?	8.7%	·	-2.8%	·
COc1cc(/C=N/NC(=O)c2cc(-c3ccccc3)nc3ccccc23)ccc1O	-2.4%	?	?	1.8%	-15.8%	·	25.2%	·
Cn1nnc(NC(=O)C(c2ccccc2)c2ccccc2)n1	5.8%	-3.5%	-28.3%	7.3%	5.4%	9.7%	5.4%	7.5%
COCCNC(=O)Cn1cc(/C=C2\C(=O)NC(=O)N(c3ccccc3F)C2=O)c2ccccc21	-0.7%	3.3%	·	?	-3.1%	·	4.4%	·
Cc1[nH]c2c(C)cccc2c1CCNC(=O)C1CCCCC1C(=O)OCC(F)(F)F (centres undefined)	-10.2%	?	3.6%	-14.9%	6.3%	-7.0%	-0.4%	10.9%
CCCn1cc(SCC(=O)NCC2CCCO2)c2ccccc21 (centres undefined)	1.5%	·	·	29.6%	8.0%	0.6%	-12.3%	3.7%
COC(=O)C(Cc1ccccc1)NC(=O)C(CC(C)C)NC(=O)OC(C)(C)C (centres undefined)	-3.9%	18.6%	-6.9%	-18.2%	0.6%	15.8µM*	-19.4%	31.6µM*
CC(CNC(=O)c1ccccc1Cl)NC(=O)c1ccccc1Cl (centres undefined)	·	?	-11.5%	-8.8%	-4.2%	·	·	·
COc1cc(OC)cc(-n2nc(C(=O)NCCCN3CCOCC3)c3ccccc3c2=O)c1	-1.4%	4.1%	18.1%	-8.3%	-6.6%	2.1%	-3.3%	-6.8%
COc1cccc(C2c3[nH]c4ccccc4c3CCN2Cc2ncc[nH]2)c1 (centres undefined)	-1.1%	?	1.2%[46.1 µM]	4.5%	-1.7%	·	-55.4%	·
CC(C)Oc1ccc(CNC(=O)c2cc3cccc4c3n2CC(C)S4)cc1 (centres undefined)	·	·	7.3%[46.1 µM]	-7.0%	·	-10.8%	·	-4.2%
CCOc1ccccc1OCC(=O)Nc1ccc(S(=O)(=O)Nc2nc(C)cc(C)n2)cc1	1.1%	-6.0%	15.8%	30.8%[activator]	0.5%	-4.7%	-8.2%	27.1%
O=C(NCc1ccccn1)Nc1cccc(F)c1	1.5%	·	·	18.2%	1.1%	·	-1.5%	·
COc1cc(C(=O)Nc2ccc3c(c2)N(C(=O)CN2CCN(C)CC2)c2ccccc2CC3)cc(OC)c1OC	-0.6%	?	?	11.5%	-18.3%	·	-3.1%	·
(next part)
SMILES	SARS PLP yeast	MARV entry inh	LASV entry inh	StopGo reporter	RE007 growth inh	Cruzain inh Det	NS1 function inh	Cruzain inh noDet
O=P(c1ccccc1)(c1ccccc1)C(O)c1ccco1 (centres undefined)	17.6%	15.1%[46.1 µM]	?	24.3%	18.6%	1.2%	4.2%	-4.2%
COc1ccc(/C(=C/Nc2cccc(Br)c2)C(C)=O)cc1OC	-4.6%	?	-28.3%	-16.9%	8.3%	·	·	·
Cc1ccc(Nc2cc(C(=O)NCCCN3CCOCC3)c3ccccc3n2)c(C)c1	1.3%	-0.2%[46.1 µM]	14.6%[46.1 µM]	-8.5%	-13.5%	·	·	·
COc1ccc(OC)c(-c2cc(C(=O)N3CCc4ccccc4C3)no2)c1	-10.2%	-6.8%	?	13.4%	-12.2%	-7.2%	-47.3%	?
CCOC(=O)N1CCN(CC(=O)n2c(C)c(C)c3ccccc32)CC1	3.2%	-15.3%	-13.7%	0.0%	-14.3%	6.1%	-30.5%	8.6%
O=C(Nc1cccc(Cl)c1N1CCOCC1)c1cccnc1Cl	-3.3%	?	0.5%	-19.2%	-15.5%	·	-5.3%	·
Cc1[nH]nc2c1C(c1cn[nH]c1-c1ccc(F)cc1)C(C#N)=C(N)O2 (centres undefined)	?	0.2%[46.1 µM]	-28.0%	22.4µM*	-6.5%	-1.0%	-1.4%	-11.4%
Cc1ccccc1C(=O)NCC(=O)NNC(=S)NC(=O)c1ccccc1	-10.9%	?	11.3%	-16.7%	36.3%	-7.2%	-0.7%	-6.0%
O=C1CC(c2cccc(Br)c2)C2=C(CCCC2=O)N1 (centres undefined)	1.0%	-4.8%	0.9%	-8.3%	12.7%	-1.3%	2.5%	-3.1%
COc1ccc(NC(=O)CSc2ccc3nc(-c4ccccc4)cn3n2)c(OC)c1	·	·	?	-19.8%	·	-8.1%	·	4.5%
CCOc1ccc(N=Cc2c(O)n(-c3ccc(C)c(C)c3)c(=O)[nH]c2=O)cc1	2.0%	4.8%[46.1 µM]	?	-2.6%	41.8%	·	3.3%	·
COc1ccc(CNC(=O)C2CCN(S(=O)(=O)c3cccc4nonc34)CC2)cc1	-1.1%	-1.8%[46.1 µM]	0.5%[46.1 µM]	-9.5%	-4.7%	·	2.3%	·
Cc1cccc(C(=O)NNC(=O)c2ccc3ccccc3c2)c1	·	?	17.2%	0.6%	-13.0%	·	·	·
CN(C)CCNc1oc(COc2ccc(Cl)cc2)nc1C#N	-0.1%	?	-5.3%	0.7%	5.1%	3.9%	4.9%	-0.6%
CCOc1ccc(CN2CCN(CCCn3cccn3)CC2CCO)cc1 (centres undefined)	1.4%	·	·	-12.5%	7.9%	·	2.5%	·
O=C(Cc1ccccc1[N+](=O)[O-])NCCSCc1c(F)cccc1Cl	0.3%	15.3%	8.6%	12.9%	0.9%	2.4%	-1.3%	-0.4%
NNC(=O)CCN1CCN(C(c2ccccc2)c2ccccc2)CC1	0.5%	?	-12.0%[46.1 µM]	-9.2%	2.4%	·	16.4%	·
COc1ccc(Cc2nnc(NC(=O)Nc3ccccc3F)s2)cc1OC	-9.9%	·	·	-4.7%	5.8%	·	?	·
N#Cc1nc(-c2ccc(OCc3ccccc3)cc2)oc1N1CCC(C(N)=O)CC1	-3.7%	-3.8%	0.1%	-23.0%	12.6%	?	-2.5%	?
Cc1cccc(N2CCN(CC(=O)NCc3ccc(Cl)cc3)CC2)c1C	-12.8%	?	?	-27.5%	-0.9%	·	-53.2%	·
CCOC(=O)Cc1ccc(NC(=O)NC(C)c2c(-n3cccc3)sc(C)c2C)cc1 (centres undefined)	·	?	·	-12.3%	·	-5.0%	·	-17.6%
CN(C)S(=O)(=O)c1cccc(NC(=O)CN(CCO)CC(=O)Nc2cccc(S(=O)(=O)N(C)C)c2)c1	0.1%	2.9%[46.1 µM]	4.6%	-10.4%	0.4%	·	-1.9%	·
O=C(c1ccc(Br)cc1)N1CCN(S(=O)(=O)c2ccccc2)CC1	3.7%	-1.8%	·	?	6.1%	-0.2%	-38.4%	2.0%
CNS(=O)(=O)c1cccc(C(=O)OCC(=O)N2CCN(C(=O)c3ccco3)CC2)c1	9.1%	-11.5%	29.1%	1.8%	2.0%	·	·	·
COc1ccc(S(=O)(=O)N2CCCC2C(=O)NCC(=O)Nc2cccc(Cl)c2C)cc1 (centres undefined)	2.8%	-23.7%[46.1 µM]	3.2%	-8.5%	-8.5%	·	-5.3%	·
Other entries:
SMILES	SARS PLP yeast	MARV entry inh	LASV entry inh	StopGo reporter	RE007 growth inh	Cruzain inh Det	NS1 function inh	Cruzain inh noDet
COc1cccc(-c2nn(-c3ccccc3)cc2/C=C(\C#N)C(=O)NCCCn2ccnc2)c1	-16.1%	-27.3%	?	0.0%	-2.2%	-3.8%	12.9%	11.5%
COc1ccc(-c2nnc(SCc3ccccc3F)o2)cc1	3.9%	?	?	-32.4%	-9.4%	-4.0%	-66.8%	-2.8%
O=C(Cc1ccccc1)Nc1ccc(NC(=O)C2CCCCC2)nc1	0.6%	0.1%[46.1 µM]	21.6%[46.1 µM]	25.2%	0.5%	·	-3.4%	·
CC(=O)Nc1ccc(C(=O)OCC(=O)Nc2ccccc2F)cc1	2.5%	21.1%[46.1 µM]	0.1%	6.3%	1.8%	·	-4.5%	·
C=CCN(C(=O)CCC(=O)Nc1cc(C)on1)C(C(=O)NC1CCCC1)c1ccc(CC)cc1 (centres undefined)	1.9%	?	0.9%	-11.7%	-12.0%	·	10.3%	·
COc1ccccc1NC(C#N)c1ccccc1OCc1ccccc1 (centres undefined)	-19.2%	?	-23.7%	7.7%	-23.6%	-6.1%	-12.3%	-13.2%
Cc1ccccc1OCc1nnc(SCC(=O)N2CCc3ccccc32)n1C	2.6%	4.6%	-2.5%	-2.1%	11.8%	-5.6%	-1.3%	6.3%

Source: PubChem BioAssay (National Center for Advancing Translational Sciences (NCATS))
